Source: PubChem BioAssay
VACV mCherry inh: qHTS for Stage-Specific Inhibitors of Vaccinia Orthopoxvirus: mCherry Reporter Primary qHTS. Potency, µM (doses to about 36.5 µM), without a hit: top-dose activity change, negative = inhibition, usual class: inhibitors. actives 0.63% (n = 310,000). AID 720579, 2013. Vaccinia virus mCherry reporter infection, fluorescence; about a quarter of the inactives have no number; active = well fitted inhibition curve with a large enough effect; inconclusive = small, poorly fitted or top-dose-only effect; inactive = no such curve, though single readings can be large or run the other way; tested in A549 cells; note: nearly all actives have a fitted effect of over 35% in size; inactives centre near -10
Vaccinia Venus: qHTS for Stage-Specific Inhibitors of Vaccinia Orthopoxvirus: Venus Reporter Primary qHTS; Vaccinia virus Venus reporter expression, fluorescence; Potency, µM (highest dose often 36.5 µM), inactives show top-dose activity change, negative = inhibition, usual class: inhibitors; actives 0.46% (n = 330,000); AID 720580, 2013; active means well fitted inhibition curve with a large enough effect; inconclusive means small, poorly fitted or top-dose-only effect; inactive means no such curve, though single readings can be large or run the other way; tested in A549 cells; note: nearly all actives have a fitted effect of over 30% in size; inactives centre near -10
Active calls of the source: *; i = inactive; ? = inconclusive; · = not tested or not shown; & = joins results of further samples. % is set by controls: 0 for no effect and ±100 for the full control effect; potency is the fitted concentration of half-maximal effect.

SMILES,VACV mCherry inh,Vaccinia Venus
C#CCN1C(C)=C(C(=O)OC)C(c2cccc([N+](=O)[O-])c2)C(C(=O)OCC)=C1C (stereo unspecified),-11%,-6%
CCOc1ccccc1CNC(=O)CCc1cn(Cc2ccc(Cl)cc2)c2ccccc12,-15%,-10%
CC(=O)c1sc(NC(=O)c2ccc3c(c2)OCO3)nc1C,-17%,-3%
COc1cc(C(=O)NCc2nnc(SCC(=O)N3CCCCCC3)o2)cc(OC)c1OC,i,-10%
COc1ccc(CC(NC(C)=O)C(=O)NC2CCN(C(=O)C3CCCCC3)CC2)c(OC)c1 (stereo unspecified),i,-4%
CCN(CC)C(=O)Cn1cc(SCC(=O)Nc2ccccc2F)c2ccccc21,-12%,0%
C#CCOCCOCCOCCNc1nc(N2CCN(C(=O)CCCCCCCCCCNC(=O)Cn3cc(C[C@@H](C)O)nn3)CC2)nc(N2CCN(C(=O)CCCCCCCCCCNC(=O)[C@@H](CCC(=O)O)n3cc(CCCCCN)nn3)CC2)n1,?,-15%
Cc1ccc(C(=O)Nc2ccc3c(c2)OCO3)cc1S(=O)(=O)N1CCCC1,·,-26%
O=C(CSc1nc2ccccc2s1)N1CCN(C(=O)c2ccco2)CC1,·,-15%
COc1ccc(CN2C(=O)NC(=O)/C(=C/c3cc(OC)c(OC)c(OC)c3)C2=O)cc1,i,-4%
Cc1cc(NC(=O)CSc2nnc(-c3ccc(Cl)s3)o2)no1,·,?
Cc1cc(C(=O)OCC(=O)Nc2cccc(S(=O)(=O)N3CCOCC3)c2)c(C)o1,-23%,-13%
CC1(C(=O)Nc2ccc3ccccc3c2)CCC(=O)N1CC(F)(F)F (stereo unspecified),18%,-7%
CN(C(=O)COC(=O)CCC(=O)c1ccc(F)cc1)C1CCCCC1,i,-20%
CN(C)/C=c1\sc2c(C#N)cc(C(=O)c3ccc(Br)cc3)n2c1=O,-13%,-8%
Cc1noc2ncnc(NCc3ccc(Cl)cc3)c12,-7%,-21%
CC(=O)NC(C)(c1ccccc1)c1nc(-c2csc3ccccc23)cs1 (stereo unspecified),-30%,-18%
CC1O[C@@H](O[C@@H]2C(O)C[C@H](O[C@@H]3C(O)C[C@@H](OC4CC[C@@]5(C)C6CC(O)[C@@]7(C)C(C8=CC(=O)OC8)CC[C@@]7(O)C6CC[C@@H]5C4)OC3C)OC2C)CC(O)[C@H]1O (stereo partly specified),1µM*,1µM*
NC(=O)c1ccc(NC(=O)CN2C(=O)NC3(CCCCCCC3)C2=O)cc1,0%,7%
Cn1c(CNc2nc(-c3ccccc3)cs2)nnc1SCC(=O)OC1CCCCC1,-6%,-6%
Cc1ccc(Cn2c(Cc3ccccc3)nc3ccccc32)cc1,-7%,-1%&-18%
CCOC(=O)C1=C(C)Nc2nc(C)nn2C1c1cc(OC)ccc1OC (stereo unspecified),-5%,4%
CC(NC(=O)OCc1ccccc1)c1ccccc1 (stereo unspecified),i,-8%
CCC(=O)Nc1ccccc1C(=O)OC(c1ccccc1)c1ccccc1,-1%,-14%
Cc1nn(-c2ccc(N3CCCCC3)nn2)c(C)c1CCC(=O)NCc1ccccc1F,-10%,-11%
Cc1cc(/C=C(\C#N)C(=O)NCc2ccccc2)cc(C)c1O,-28%,4%
COC(=O)[C@@H](Cc1ccccc1)NC(=O)Cn1cc(C)c(=O)[nH]c1=O,-9%,-12%
CC1CCC2(OC1)OC1CC3C4CCC5CC(O)CCC5(C)C4=CCC3(C)C1C2C (stereo unspecified),-7%,-7%
O=C(O)CCCCCn1c(SCc2cc(=O)n3ccccc3n2)nc2ccsc2c1=O,i,-12%
CCCC(=O)c1cc(F)c(N2CCN(S(=O)(=O)c3ccccc3)CC2)cc1C,-23%,-21%
Cc1cc2c(cc1C)CSC(c1c(O)ccc3ccccc13)SC2,-21%,?
N#CC1=C(N)C(C#N)(C#N)C2(CCC3(CC2)OCCO3)C2CC3(CC=C12)OCCO3 (stereo unspecified),-7%,-18%

3 structures already listed, ordered by molar mass, rising:
SMILES,VACV mCherry inh,Vaccinia Venus
Cc1cc2c(cc1C)CSC(c1c(O)ccc3ccccc13)SC2,-21%,?
CCCC(=O)c1cc(F)c(N2CCN(S(=O)(=O)c3ccccc3)CC2)cc1C,-23%,-21%
O=C(O)CCCCCn1c(SCc2cc(=O)n3ccccc3n2)nc2ccsc2c1=O,i,-12%

Next part.
SMILES,VACV mCherry inh,Vaccinia Venus
Cc1ccc(CN2C(=O)CSc3ccc(C(=O)NC4CC4)cc32)cc1,-7%,-3%
COc1ccccc1-c1csc(C(C)(NC(C)=O)c2ccccc2)n1 (stereo unspecified),-11%,0%
Cc1ccc(C(=O)c2ccc(C)cc2)cc1,i,-6%
CN(c1ccc(S(=O)(=O)N2CCOCC2)cn1)C1CCCCC1,·,-22%
COc1ccc(-c2c(C)nn3c(N4CCC5(CC4)OCCO5)cc(C)nc23)cc1OC,-1%,16%
O=C(CN(Cc1ccc(Br)cc1)S(=O)(=O)c1ccccc1)NCc1ccccn1,-20%,-8%
Clc1ccc2c(c1)-n1cc(-c3ccccc3)nc1CO2,-8%,-7%
COc1ccc(-c2ccnc(SCC(=O)c3ccc(OC)c(OC)c3)n2)cc1,-1%,-15%
COCCNS(=O)(=O)c1cc(F)ccc1OC,-16%,0%
CN1CCN(C(=O)c2ccc(COc3cc(Cl)ccc3Cl)o2)CC1,-13%,-20%
O=C(COc1ncnc2ccccc12)NCCc1ccc(F)cc1,?,-20%
N#Cc1ccc(NC(=O)CN2CCCCCC2)cc1Cl,i,-19%
CCc1cccc(NC(=O)Nc2ccc3c(c2)OCO3)c1,-29%,?
Cc1ccc(OCCCC(=O)Nc2nnc(C3CCCO3)s2)c(C)c1 (stereo unspecified),5%,1%
Cc1cccc(NC(=O)CC(=O)Nc2cccc(C)c2)c1,-9%,-13%
CCn1c(SCC(=O)Nc2nnc(C)s2)nnc1-c1ccncc1,-12%,-12%

Given field by field: part of the list above.
molecule: N#Cc1ccc(NC(=O)CN2CCCCCC2)cc1Cl
  VACV mCherry inh = i	Vaccinia Venus = -19%
molecule: CCc1cccc(NC(=O)Nc2ccc3c(c2)OCO3)c1
  VACV mCherry inh = -29%	Vaccinia Venus = ?
molecule: Cc1ccc(OCCCC(=O)Nc2nnc(C3CCCO3)s2)c(C)c1 (stereo unspecified)
  VACV mCherry inh = 5%	Vaccinia Venus = 1%
molecule: Cc1cccc(NC(=O)CC(=O)Nc2cccc(C)c2)c1
  VACV mCherry inh = -9%	Vaccinia Venus = -13%

Continued.
SMILES,VACV mCherry inh,Vaccinia Venus
Cc1ccc(S(=O)(=O)N2CCN(S(C)(=O)=O)C2)cc1,-8%,-8%
CCN(CC(=O)Nc1cc(S(=O)(=O)N2CCCCC2)ccc1C)Cc1ccccc1,-9%,-13%
Cc1cccc(-n2c(-c3ccco3)nc3ccccc3c2=O)c1C,i,-12%
CCCNC(=O)c1cc2c(c(-c3cccc(-c4ccccc4F)c3)n1)[C@@H](CCO)N(C(=O)CC1CC1)C2,-18%,-11%
CC(=O)Nc1ccc(S(=O)(=O)O)c2cc(S(=O)(=O)O)c(N=Nc3ccc(N=Nc4ccc(S(=O)(=O)O)cc4)c4ccc(S(=O)(=O)O)cc34)c(O)c12,-19%,-19%
CCOc1ccc(CCN2C(=O)C(=O)N([C@@H](CC(C)C)CN3CCC[C@H]3CN3C(=O)C(=O)NC[C@@H]3CC(C)C)C[C@@H]2CC(C)C)cc1,-8%,-8%
O=C(COc1ccc2ccccc2c1)NC1=NCCS1,0%,?
COc1ccc(OC)c(S(=O)(=O)N2CCCC(C(=O)NCc3ccccn3)C2)c1 (stereo unspecified),-1%,20%

(next part)
Molecule | VACV mCherry inh | Vaccinia Venus
CCC(c1nc2ccccc2c(=O)n1-c1nc2ccccc2s1)N1C(=O)c2ccccc2C1=O (stereo unspecified) | -3% | -13%
COC(=O)[C@@]12C[C@@H](CC(=O)N3CCCCC3)C(=O)N(CCc3ccc(OC)c(OC)c3)C1=CCC(C)(C)C2 | -14% | -8%
Cc1ccc(CN2CCN(/N=C/c3ccc(C(=O)O)cc3)CC2)cc1 | -2% | -2%
CCOc1ccccc1C1C(C(N)=O)=C(C)Nc2nc(-c3ccc(OC)cc3)nn21 (stereo unspecified) | -10% | 2%
Cc1nc2nc[nH]n2c(=O)c1NS(=O)(=O)c1ccc(Br)cc1 | -10% | -6%
CCOC(=O)c1cc(-c2csc(-c3ccc(C(C)(C)C)cc3)n2)on1 | -13% | -7%
COc1ccc(-c2cn(-c3ccc(C)cc3C)c(=O)[nH]2)cc1OC | ? | -8%
O=C(CSc1nc2ccccc2c(=O)[nH]1)N1CCOCC1 | i | -12%
CCCC1OC2CC3C4CCC5=CC(=O)C=CC5(C)C4C(O)CC3(C)[C@]2(C(=O)CO)O1 (stereo partly specified) | -6% | -21%
O=C(Nc1cccc(C(=O)N2CCOCC2)c1)C1CCCC1 | i | -9%
CC(C)C1NC(=S)N(C2CCCCC2)C1=O (stereo unspecified) | -11% | -9%
COc1ccc(CCNC(=O)CN(C2CCCCC2)S(C)(=O)=O)cc1OC | i | -18%
FC(F)(F)c1cccc(-c2nc3ccccc3n2C(c2ccccc2)c2nc3ccccc3[nH]2)c1 (stereo unspecified) | 7% | 2%
Cc1ccc2ccc(C3C(=O)c4ccccc4C3=O)nc2c1 | i | -2%
Cc1ccc(CNC(=O)C2CSC3(C)CCC(=O)N23)cc1 (stereo unspecified) | i | 1%
O=C(CSc1nc2ccccc2o1)NCC1CCCO1 (stereo unspecified) | 0% | -7%
Cc1ccc(S(=O)(=O)N(C)CC(=O)O/N=C(\N)c2cccc(Br)c2)cc1 | -17% | -18%
O=[N+]([O-])c1ccc2c(c1)C(c1ccccc1)=NCCN2 | ? | ?
CC(C)C(NC(=O)c1ccccc1F)C(=O)NCc1ccccc1 (stereo unspecified) | i | -9%
COc1ccc(/C=N/N2CCN(C)CC2)cc1OC | · | 2%
CC(C)(C)OC(=O)N1CCc2onc(-c3ccc(N)cc3)c2C1=O | i | -9%
Cc1ccc(O)c(NC(=O)c2cc(-c3cccs3)on2)c1 | ? | -14%
COc1ccc(N2CCN(S(=O)(=O)CCNC(=O)c3ccc(OC(C)C)cc3)CC2)cc1 | -11% | -13%
S=C1N(c2ccccc2)C(c2ccccc2)N2CCCN12 (stereo unspecified) | -10% | -9%
C#CCOCCOCCOCCNc1nc(N2CCN(C(=O)CCCCCCCCCCNC(=O)[C@@H](CCSC)n3cc(CCO)nn3)CC2)nc(N2CCN(C(=O)CCCCCCCCCCNC(=O)[C@H](CCCN=C(N)N)n3cc(C[C@@H](C)CC)nn3)CC2)n1 | ? | 10µM*
CC(C)OC(=O)c1cc2c(ccn2C)n1CC(=O)N1CCC(Cc2ccccc2)CC1 | ? | -21%
CCN(CC)S(=O)(=O)c1cc(C(=O)OCC(=O)Nc2cccc(C)c2C)ccc1F | -9% | -10%
CN1CCN(CC(=O)Nc2cc(S(=O)(=O)N3CCOCC3)ccc2Cl)CC1 | -18% | -19%
COc1ccccc1C(=O)NCCC(=O)NCC(c1ccccc1OC)N1CCCC1 (stereo unspecified) | -22% | -9%
CC1CN(c2nc3ccccn3c(=O)c2/C=C(\C#N)S(=O)(=O)c2ccccc2)CC(C)O1 (stereo unspecified) | -13% | -9%
NS(=O)(=O)c1ccc(NC(=O)C2(c3ccccc3)CCCC2)cc1 | -4% | -4%
COc1ccc(C(C(=O)NC2CCCC2)N(CCN2CCOCC2)C(=O)c2ccc(OC)c(OC)c2)cc1 (stereo unspecified) | i | -13%
COc1cc(OC)cc(C(=O)NC2CC(C)(C)NC(C)(C)C2)c1 | -14% | -18%
COc1ccc(C(=O)N2c3cc4c(cc3C(C)=CC2(C)C)OCO4)cc1 | · | -19%
O=C(OCC(=O)N1CCCC1)c1cc(Cl)ccc1[N+](=O)[O-] | 5% | -19%
Cc1ccc(C)c(S(=O)(=O)N2CCN(Cc3cc4c(cc3O)OCO4)CC2)c1 | ? | ?
Cc1ccc(C(c2nnnn2CC2CCCO2)N2CCN(Cc3ccccc3)CC2)cc1 (stereo unspecified) | -4% | -16%
CC1(C)C(N(O)C(=O)Nc2ccc(Cl)cc2)N(c2ccc(Cl)cc2)C(=O)N1CC(=O)NN (stereo unspecified) | -18% | -18%
CCc1cc(CNC(=O)C2CCC(=O)N(Cc3cccc(F)c3)C2)on1 (stereo unspecified) | -2% | -5%
COc1ccccc1CNC(=O)c1csc(Cc2ccc(Cl)cc2)n1 | · | ?
Cc1c(C(=O)NCCSCc2c(F)cccc2Cl)cnn1-c1ccc(F)cc1 | -26% | -21%
COc1cccc(CSc2nc3n(n2)C(CC(C)C)C(C(=O)Nc2ccccc2OC)=C(C)N3)c1 (stereo unspecified) | -18% | -22%
Cc1cc(Cl)ccc1OCC(=O)N1CCC(c2nc3ccccc3o2)CC1 | 1% | -3%
CN=C(Nc1ccc(C(=O)OC)s1)c1ccc(Cl)cc1 | 13% | -5%
CCCC(=O)C1=C(O)C(C(=O)OC)C(C)(C)CC1=NC(C)(C)C (stereo unspecified) | -6% | 3%
O=C(/C=C/c1ccco1)Nc1ccccc1C(=O)Nc1cccc(C(=O)O)c1 | -7% | -22%
